RN4220 kill = S. aureus RN4220 growth inhibition; inhibition, % (no concentration beside the values); actives 0.33% (n = 330,000); OD600, 16 h;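 active means z-score of -3 or lower and OD600 up to 0.18 on both plates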;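 further: plate controls were untreated cells for no effect and reference antibiotic for full effect; stock transfer was 100 nL into about 80 µL; one replicate is shown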
BJeLR lethal = BJeLR cell viability loss; actives 0.17% (n = 300,000); BJeLR (HRASV12) viability, CellTiter-Glo ATP luminescence, 48 h; reference of the scale not given here; inhibition, % (no concentration beside the values);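 active means replicate mean above 50%; inconclusive means above 50% but judged a plate artefact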;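 further: 50 nL library stock added to about 25 µL; numbers are from one replicate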
PrP 5UTR inh = inhibition of PrP 5' UTR reporter expression. cell-based PrP 5' UTR mRNA reporter, plate reader. inhibition, % (concentration not given with the values). actives 0.35% (n = 340,000);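 active means every replicate at 50% or more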;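 further: 0 = median of the neutral control wells; tested in H4 reporter cells; numbers are from one replicate; inactives centre near -14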
ugtP null kill = compounds lethal to S. aureus RN4220 ugtP deletion mutant. OD600 growth, 16 h; some inactives read as strong as hits. growth inhibition, % (no concentration beside the values). actives 0.54% (n = 330,000). AID 1259309;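 active means z-score under -3 and OD600 up to 0.15 on both plates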;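 further: plate controls were untreated wells for no effect and antibiotic for full effect; wells of about 80 µL received 100 nL stock; the first replicate is given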
Mtb hypoxia inh = reduces hypoxia-regulated biosensor signal in M. tuberculosis. M. tuberculosis hypoxia-regulated fluorescent reporter, fluorescence. fluorescence inhibition, % (test concentration not listed). actives 0.1% (n = 300,000). AID 1159583;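 active means 35 to 45% if threefold the growth effect, above 45% if 1.5-fold the growth effect; inactive means the rest, general growth blockers included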;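 further: wells of about 50 µL received 100 nL stock; 0% = vehicle wells and 100% = reference inhibitor wells; whole bacteria with a GFP reporter of the hypoxia response; strong numbers were not always called active; many hits fall short of the cut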
Bead autofluor = compound fluorescence in toxin protease inhibitor counterscreen; compound autofluorescence counterscreen, microsphere flow cytometry; hits give high values; actives 3.1% (n = 360,000); fluorescence intensity (no concentration beside the values); AID 624483;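 active means at least 3 SD above the mean of all compounds, about 16000 in these data; inconclusive means too few beads counted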;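 further: 100 nL of 1 mM stock went into each well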
Mtb hypoxia inh growth = further read-out of Mtb hypoxia inh, marked with its call; growth inhibition, %; measured here: M. tuberculosis growth (absorbance);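 0% = vehicle and 100% = reference antibiotic; read after six days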
* hit, by the source's call; ? = inconclusive; . = no result given; & = joins results of further samples. Random draw from the library, and some 3.9% of all compounds hit somewhere here.

canonical_smiles,RN4220 kill,BJeLR lethal,PrP 5UTR inh,ugtP null kill,Mtb hypoxia inh,Mtb hypoxia inh growth,Bead autofluor
CC(=O)c1c(C)n(-c2ccccc2)c2ccc(O)cc12,4.9,.,-14,-6,-1,9,10552
CC(C)(C)c1ccc(OC(=O)Nc2ccc(O)c(C(=O)O)c2)cc1,0.6,-2,-3,-5,-3,12,3858
Cn1cccc1Cc1nnc(SCC(=O)NC2CCCC2)n1CCc1ccccc1,6.0,-8,-8,-1,.,.,6166
CCSc1nnc(NC(=O)CSc2nnc(C)c(=O)n2N)s1,0.8,46,-36,3,3,4,3721
Cc1cccc2c1-c1sc(C(=O)Nc3cccnc3)cc1CO2,-5.0,5,-30,-5,11,6,5161
Oc1nc(Nc2cccc(Cl)c2)sc1/C=C1\C=Nc2ccccc21,100*,-8,-35,100*,4,3,8124
Fc1ccc(-c2[nH]ncc2CN(CC2CCC2)CC2CCCO2)c(F)c1 (stereo not given),1.9,8,-8,2,6,8,4380
COc1ccc(C(C(=O)NC(C)(C)C)N(CCc2ccc(OC)c(OC)c2)C(=O)CCC(=O)Nc2cc(C)on2)cc1 (stereo not given),0.0,1,-6,2,4,-2,3275
CC1CCN(CC(=O)Nc2cc(C(F)(F)F)ccc2Cl)CC1,6.0,-1,-24,20,5,14,2523
COc1ccc(/C=N/NC(=O)CSc2n[nH]c(=O)[nH]c2=O)cc1,.,6,-5,.,.,.,2639
c1cnc2c(c1)ncc1cscc12,0.6,-1,7,11,-3,-1,2569
NC(N)=NS(=O)(=O)c1ccc(NC(=S)NC(=O)Cc2ccc(Cl)cc2)cc1,3.8,-2,-14,88*,5,3,3561
CCCn1nc(NC(=O)CC(C)C)c2cc3ccccc3nc21,-1.1,-10,-19,-6,0,0,22379*
O=C(CN1C(=O)CSC1=O)N1CCCC(Nc2ccc(F)cc2)C1 (stereo not given),0.0,0,-19,8,7,-1,5413
O=C(Cc1cccc2ccccc12)Nc1c(F)cccc1F,1.3,0,11,11,-5,2,3419
CC1Cc2ccccc2N1Cc1cccc([N+](=O)[O-])c1 (stereo not given),2.3,4,-11,14,5,2,3583
CCOc1ccccc1N1CCN(C(=S)NCc2ccc(Cl)cc2)CC1,-6.8,6,-19,-10,16,6,4110
COc1ccc(NC(=O)C2CC(c3cc(OC)c(OC)c(OC)c3)=NO2)cc1OC (stereo not given),5.9,-8,-19,-8,-1,7,21486*
CCOC(=O)c1nnc(-c2ccccc2)[nH]c1=O,3.4,4,-3,0,0,3,2403
CCCCC(c1nnnn1CCOC)N1CCN(c2cccc(OC)c2)CC1 (stereo not given),6.2,-9,-2,11,.,.,3599
CC1CCN(CC(O)COCCC23CC4CC(CC(C4)C2)C3)CC1 (stereo not given),1.9,10,-27,-7,4,7,10410
Cc1oc(-c2ccccc2F)nc1CS(=O)CC(=O)N1CCC2(CC1)OCCO2 (stereo not given),4.3,-11,-14,-2,13,5,?
Cc1cc(CNCc2c(C(=O)N3CCCCCCC3)nc3ccc(Cl)cn23)nn1C,22,6,-21,-59,17,8,4504
O=C(O)C1CCCCC1C(=O)Nc1ccccn1 (stereo not given),1.3,5,-33,5,.,.,2376
O=C(O)c1cc(O)ccc1-c1ccc(O)cc1,-0.4,5,-5,1,3,5,4183

More structures
canonical_smiles,RN4220 kill,BJeLR lethal,PrP 5UTR inh,ugtP null kill,Mtb hypoxia inh,Mtb hypoxia inh growth,Bead autofluor
O=C(c1cc(S(=O)(=O)N2CCOCC2)ccc1F)N1CCC2(CC1)OCCO2,-0.5,4,-19,-3,0,11,10715
COC(=O)[C@]1(C)N[C@H](CN(C)S(=O)(=O)c2ccc(F)cc2)[C@@H]2C(=O)N(Cc3ccccc3)C(=O)[C@@H]21,3.0,.,17,2,0,9,3681
CCC(=O)NCCc1c[nH]c2ccccc12,3.9,-17,-9,3,4,1,4232
CCOC(=O)c1[nH]c2ccc(OC)cc2c1NC(=O)CN1CCc2ccccc2C1,2.1,-10,-4,2,-7,-5,2927
COc1ccc(C2/C=C\CN(C(=O)C3CCCC3)[C@H](Cc3ccccc3)C(=O)N2Cc2ccc(F)cc2)cc1 (stereo not given in full),.,0,-12,.,.,.,3946
CCOc1nc(OCC)nc(N2CCC(C)CC2)n1,5.7,6,-19,2,.,.,4805
O=C1CCCCC=CCC(CC(=O)N(CCO)Cc2ccccc2)C(=O)N2CCCC2CO1 (stereo not given),4.0,.,.,4,19,6,.
Clc1ccc(Cl)c(OCc2cc(-c3ccccc3Cl)on2)c1,10,-3,-74,7,.,.,2986
CCOc1ccc(CC(=O)NCc2cn3c(C)csc3n2)cc1,1.4&13,-1,-9,0&17,1&-1,10&0,6651
Cc1cccc(COc2ccc(/C(O)=C3\C(=O)C(=O)N(CCN(C)C)C3c3ccncc3)cc2)c1 (stereo not given),3.7,2,-12,7,.,.,2551
O=C(NCc1ccco1)C(c1ccncc1)N(CCC1=CCCCC1)C(=O)Cn1nnc2ccccc21 (stereo not given),1.8,0,-38,-4,.,.,2510
COc1cc(C(=O)OCC(=O)c2cc(C)n(CC3CCCO3)c2C)ccc1OCC(=O)N1CCOCC1 (stereo not given),1.2,7,11,-3,5,-1,4638
Cc1cc(Br)ccc1NC(=O)CN(C)C(=O)CN1C(=O)NC2(CCCC2)C1=O,1.0,6,-6,1,-5,12,6015
Cc1ccc(NC(=O)COC(=O)CCc2ccc(S(=O)(=O)N3CCOCC3)cc2)cc1C,4.2,-3,-13,6,-8,-1,4422
COC(=O)CN(c1nc(C)c(Cl)c(OC)n1)S(=O)(=O)c1ccc(C)cc1,-1.6,-7,-4,-5,-1,11,4734
CCOC(=O)C1=C(c2ccccc2)N=C2SCC(=O)N2C1c1ccc2c(c1)OCO2 (stereo not given),-12,4,-7,1,8,3,3360
C#CCOCCOCCOCCNc1nc(N2CCN(C(=O)C(CCCCN)n3cc(C(N)CC(N)=O)nn3)CC2)nc(N2CCN(C(=O)C(CCCCN)n3cc(C(N)C(C)CC)nn3)CC2)n1 (stereo not given),6.2,.,.,1,4,-3,.
COC(=O)c1[nH]c2cccc(OC)c2c1NC(=O)C(C)N1CCC(C)CC1 (stereo not given),0.9,-2,.,-4,8,3,.
Cn1c(O)c(/C=N/NC(=O)c2ccncc2)c(=O)[nH]c1=S,3.8,3,.,4,9,5,5727
COc1cc(NC(=O)Cc2cccc3ccccc23)c(C(=O)O)cc1OC,6.0,-8,-18,2,2,5,3393
CCOC(=O)c1[nH]c(C)c(C(=O)NCCc2ccc(OC)cc2)c1C,8.4,6,-13,-9,6,4,?
Cc1nnc(SCC(=O)Nc2ccc(F)cc2)n(N)c1=O,4.3,11,-14,8,8,-1,6235
CCN(CC)C(=O)COc1ccc(C(C)=NNC(=O)c2ccccc2O)cc1,1.1,.,.,-1,11,45,.
CCCCC(=O)Nc1ccc(C(=O)c2ccccc2)cc1,.,1,-74,.,.,.,3388
CCOC(=O)c1ccccc1NC(=O)c1ccccc1N(C)S(C)(=O)=O,0.9,3,-5,0,.,.,2274

(list continues)
canonical_smiles,RN4220 kill,BJeLR lethal,PrP 5UTR inh,ugtP null kill,Mtb hypoxia inh,Mtb hypoxia inh growth,Bead autofluor
NC(=O)N1CCc2ccccc21,9.7,-6,-29,5,9,13,4314
Clc1ccc(CSCCc2ccncc2)cc1,1.8,4,-14,-4,13,9,2837
CC1CC1C(=O)Nc1cc(S(=O)(=O)N2CCOCC2)ccc1N1CCCC1 (stereo not given),-1.4,-1,-3,5,6,-1,3081
Cc1ccc(SCC(=O)c2ccc[nH]2)cc1,5.1,-2,-44,7,3,10,3950
Cc1cc(C)n(C2CC(=O)N(c3ccccc3)C2=O)n1 (stereo not given),2.4,-5,-16,-1,-8,-4,11047
CCC1(c2ccc(C)cc2)NC(=O)N(CC(=O)Nc2cccc(S(=O)(=O)N3CCCC3)c2)C1=O (stereo not given),-6.2,.,-16,0,8,4,4105
CC/C(=N/NC(=O)CCC(=O)Nc1ccccc1OC)c1ccccc1,.,-8,-33,.,.,.,2676
CCOC(=O)N1CCN(c2ncnc3c2cnn3-c2ccc(Cl)cc2)CC1,3.1,-4,.,-1,-4,5,.
CC(C)CN1CCC(=O)N(CCSc2ccc(Br)cc2)CC1,3.9,-2,-5,-2,7,12,2877
COc1ccc(CCn2c(SCC(=O)Nc3cc(C)on3)nc3ccsc3c2=O)cc1OC,5.3,.,-9,-7,8,8,19488*
CCOc1ccc(C(=O)NCC(=O)N2CCN(C/C=C/c3ccccc3)CC2)cc1OCC,1.4,-16,1,3,2,3,6180
COC(=O)Cc1nc2c(N)nc(N)nc2[nH]c1=O,3.6,.,-24,5,5,3,4129
Cc1ccc(CNC(=O)COC(=O)c2ccc(Br)cc2)cc1,4.3,3,-15,0,6,3,2155
O=C(O)c1cnc(-c2ccccc2)nc1Sc1cccc(Cl)c1,15,4,-28,-5,6,8,9577
CCN(C(=O)COC(=O)c1c(NC(C)=O)sc(C)c1C)C1CCS(=O)(=O)C1 (stereo not given),4.5,5,-7,3,10,1,2649
Cc1nc(NCCc2ccccc2F)c(C#N)c(C)c1[N+](=O)[O-],13,2,-16,23,.,.,3300
CC1CN(C(=O)c2cc3cc(Cl)ccc3[nH]2)CC(C)O1 (stereo not given),4.9,0,1,-3,5,16,4124
Clc1ccc(/C=N/NC(=Nc2ccccc2)c2ccccn2)c(Cl)c1,.,-3,-22,.,.,.,3365
O=C(Nc1ccccc1Cl)N1CCSc2ccccc21,2.5,-11,-1,-11,3,12,5791
CCCc1cc(=O)oc2cc(C)cc(OC(C)C(=O)NCc3ccncc3)c12 (stereo not given),2.2,1,0,4,1,7,5565
Cc1ccc(NC(=O)CN(C)C(=O)CCCN2C(=O)c3ccccc3C2=O)cc1,-0.1,0,3,-5,-6,2,9764
C=CCC(C(=O)c1ccccc1)[N+](C)(C)CC=C (stereo not given),3.0,-3,-6,8,12,1,4641
COCCCNC(=O)CC1C[C@H](C(=O)N2CCCCC2)[C@@]2(CCc3ccccc3)c3[nH]c4ccccc4c3CCN2C1=O (stereo not given in full),4.0,.,-20,7,-9,-7,3871
CCCC(CCC)C(=O)Oc1cc(C)[nH]c(=O)c1[N+](=O)[O-],0.9,-5,-9,2,15,14,2437
O=C(CN1CCOc2ccccc21)NCc1ccc(F)cc1,-4.2,-1,-19,1,.,.,5655

Fetched by structure from the entries so far, 6 records:
canonical_smiles,RN4220 kill,BJeLR lethal,PrP 5UTR inh,ugtP null kill,Mtb hypoxia inh,Mtb hypoxia inh growth,Bead autofluor
Cc1cc(C)n(C2CC(=O)N(c3ccccc3)C2=O)n1 (stereo not given),2.4,-5,-16,-1,-8,-4,11047
CC(C)CN1CCC(=O)N(CCSc2ccc(Br)cc2)CC1,3.9,-2,-5,-2,7,12,2877
CC/C(=N/NC(=O)CCC(=O)Nc1ccccc1OC)c1ccccc1,.,-8,-33,.,.,.,2676
O=C(O)c1cnc(-c2ccccc2)nc1Sc1cccc(Cl)c1,15,4,-28,-5,6,8,9577
Clc1ccc(/C=N/NC(=Nc2ccccc2)c2ccccn2)c(Cl)c1,.,-3,-22,.,.,.,3365
COCCCNC(=O)CC1C[C@H](C(=O)N2CCCCC2)[C@@]2(CCc3ccccc3)c3[nH]c4ccccc4c3CCN2C1=O (stereo not given in full),4.0,.,-20,7,-9,-7,3871

Next section:
canonical_smiles,RN4220 kill,BJeLR lethal,PrP 5UTR inh,ugtP null kill,Mtb hypoxia inh,Mtb hypoxia inh growth,Bead autofluor
COc1ccc(CNc2ccc(C)c(C)c2)c(OC)c1OC,15,6,-28,8,.,.,3113
CCOC(=O)c1cc(-c2nnc(-c3ccc(Oc4ccccc4)cc3)o2)c(C)nc1C,-6.6,-14,-22,4,.,.,6135
N#Cc1ccc(C(=O)Nc2ccc3ccccc3c2)cc1,-0.4,-1,-182,-4,0,3,4544
CCn1c(-c2c(Cl)c(C)nn2C)n[nH]c1=S,-2.3,1,-24,-1,-2,9,2593
Cn1c2ccccc2c(=O)c2cc(C#CC3(O)CCCCC3)ccc21,3.5,12,65*,10,8,10,2725
Cc1cc(NCc2ccccn2)n2nc(C)c(-c3ccccc3)c2n1,5.9,5,-29,9,0,14,5646
O=C(Nc1nc2cc3c(cc2s1)OCCO3)c1ccco1,.,7,78*,.,.,.,5725
